# ALR H2O2 inh: inhibitors of human ALR sulfhydryl oxidase, primary screen, biochemical, H2O2 detection, HRP-luminol luminescence, single point | 3.8% of 290,000 active | AID 485317, 2010 | purified ALR, DTT oxidation | inhibition, % (test concentration not listed) | FAD-linked sulfhydryl oxidase ALR (Homo sapiens), P55789;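 active = mean and each replicate at 75% or more; inconclusive = only one of the two met; inactive = neither met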;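 note: stock transfer was 7.5 nL into about 7.5 µL; 0% = neutral wells and 100% = wells with inactivated enzyme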
# Target sequence (P55789 whole entry, looked up): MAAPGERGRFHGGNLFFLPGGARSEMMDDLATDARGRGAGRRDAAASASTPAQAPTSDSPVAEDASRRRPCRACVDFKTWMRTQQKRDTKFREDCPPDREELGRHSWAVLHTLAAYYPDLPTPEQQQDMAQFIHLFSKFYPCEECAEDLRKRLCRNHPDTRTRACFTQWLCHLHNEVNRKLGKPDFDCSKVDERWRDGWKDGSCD
# AF4-AF9 inh: inhibitors of AF4 peptide binding to AF9, primary screen, biochemical, AlphaScreen, biotin-AF4 peptide, FLAG-AF9, single point. inhibition, % at 10 µM. 0.47% of 350,000 active. AID 651704, 2012;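 active = every replicate reaching a set inhibition limit, whatever the replicate mean, cut at about 25% in these data; inconclusive = mean inhibition reaches that limit but some replicates miss it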;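 note: 0% = plate neutral control median and 100% = total signal loss; the record names both 10 and 1 µM as test concentration; the first replicate is given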
# Target sequence (P42568 whole entry, looked up): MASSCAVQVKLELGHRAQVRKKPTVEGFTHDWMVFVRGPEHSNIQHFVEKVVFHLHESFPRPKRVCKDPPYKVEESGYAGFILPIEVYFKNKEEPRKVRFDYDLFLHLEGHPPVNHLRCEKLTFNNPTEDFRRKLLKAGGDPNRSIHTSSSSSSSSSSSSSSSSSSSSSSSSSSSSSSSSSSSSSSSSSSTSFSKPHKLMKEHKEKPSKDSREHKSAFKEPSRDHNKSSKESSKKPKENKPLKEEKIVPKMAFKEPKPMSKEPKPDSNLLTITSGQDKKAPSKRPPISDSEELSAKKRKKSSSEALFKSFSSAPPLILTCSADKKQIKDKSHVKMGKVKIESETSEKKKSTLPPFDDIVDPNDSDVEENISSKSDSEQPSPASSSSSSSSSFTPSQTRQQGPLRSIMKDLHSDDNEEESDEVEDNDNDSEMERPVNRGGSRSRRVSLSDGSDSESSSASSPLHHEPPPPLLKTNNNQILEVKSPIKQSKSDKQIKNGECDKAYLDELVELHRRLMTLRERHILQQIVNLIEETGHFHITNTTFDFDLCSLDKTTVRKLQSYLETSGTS
# rRNA inh HTS: reduced GFP signal of wild-type E. coli, primary screen, bacterial rRNA inhibitor project, GFP/RFP fluorescence, OD600, single point; E. coli WT GFP vs humanized-ribosome RFP mutants, 24 h; stronger effect = lower value; DMSO median 0, no signal -100; GFP signal change (wild-type ribosome), % (test concentration not listed); 1.6% of 350,000 active;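 active = significant combined selectivity score with lowered wild-type GFP, culture density cut under 30%, mutant RFP and density less affected; inactive = any of these conditions unmet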; note: one replicate is shown; some compounds called inactive have numbers as strong as hits
# Vif TR-FRET: inhibitors of Vif binding to APOBEC3G peptide, primary screen, biochemical, TR-FRET, GST-Vif 1-94, biotin-A3G peptide, dose response retest (AID 1117319). Virion infectivity factor (Human immunodeficiency virus type 1 group M subtype B (isolate …. TR-FRET GST-Vif / biotin-A3G peptide binding; higher % means a stronger effect; test concentration not given here; strong numbers were not always called active. one-dose inhibition, %; IC50 in µM for titrated hits. 0.57% of 260,000 active;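 active = above the screen mean plus three standard deviations and confirmed in dose response; inconclusive = results disagree or hit not tested in dose response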;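 note: Vif residues 1-94 fused to GST binding biotinylated APOBEC3G peptide 110-148; 0% = full assay without inhibitor and 100% = GST in place of GST-Vif; retest series ran down from 100 µM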
# Ecoli growth: E. coli growth inhibition, primary screen, OD600; Escherichia coli growth, 23 h; stronger effect = lower value; OD600 absorbance (concentration not given with the values); 0.21% of 330,000 active; AID 1053175, 2014;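 active = OD600 absorbance below the run mean of sample wells minus 3.6 SD, in any replicate, cut at about 0.56 in these data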;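 note: stock transfer was 300 nL into about 60 µL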
# FGF22 binding: binders of human FGF22 protein, primary screen, FGF22 synaptogenesis inhibitor project, biophysical, thermal shift, single point; Fibroblast growth factor 22 (Homo sapiens), Q9HCT0; recombinant FGF22 thermal shift, SYPRO orange fluorescence; percent of sucrose octasulfate shift, DMSO zero; calls only at 9.99 µM; 1.5% of 340,000 active;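 active = melting point raised past a set limit in the mean and every replicate; inconclusive = no clear call; three in four hits are not shown here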
# Target sequence (Q9HCT0 whole entry, looked up): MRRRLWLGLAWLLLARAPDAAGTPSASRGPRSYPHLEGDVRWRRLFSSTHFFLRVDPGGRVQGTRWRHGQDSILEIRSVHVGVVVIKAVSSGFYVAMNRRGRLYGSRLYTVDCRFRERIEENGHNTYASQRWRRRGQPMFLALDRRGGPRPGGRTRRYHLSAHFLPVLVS
# HNF4A DNA FP: change in binding of human HNF4A to DNA, primary screen, biochemical, fluorescence polarization, FITC-DNA; Hepatocyte nuclear factor 4-alpha (Homo sapiens), P41235; 1 h; activity change, % at 10 µM; 0.3% of 360,000 active; in the data active = activity change above about 30%, passing the limit was not always enough;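 note: controls were the assay level and a saturating level of protein; the project sought stronger binding though the title names inhibitors; some compounds called inactive have numbers as strong as hits; positive values seem to mean higher polarization but the record does not say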
# rRNA inh HTS OD600: recorded beside rRNA inh HTS, whose call it bears; OD600 change, %; measured here: OD600 growth;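 optical density of the mix in the first replicate; 0 = DMSO median and -100 = no signal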
# rRNA inh HTS RFP: second read-out of rRNA inh HTS, no call of its own (marks repeat the call); RFP signal change, %; measured here: RFP humanized mutant strains;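 first replicate; 0 = DMSO median and -100 = no signal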
# * hit, by the source's call; i = inactive; u = inconclusive; x = no result given; & = joins results of further samples.
SMILES,ALR H2O2 inh,AF4-AF9 inh,rRNA inh HTS,rRNA inh HTS OD600,rRNA inh HTS RFP,Vif TR-FRET,Ecoli growth,FGF22 binding,HNF4A DNA FP
Cc1ccc(S(=O)(=O)Nc2cccc(C(=O)NCC3(N4CCCCC4)CCCCC3)c2)cc1F,-88,4.1,9,-2,4.6,-12%,0.61,i,0.2
O=C(c1ccccc1Br)N1CCn2c1nc1ccccc12,-9,-1.1,1,12,-2.3,-7%,0.71,i,-1.9
O=S(=O)(Nc1cccc(-n2cnnn2)c1)c1ccccc1,-5,-0.3,2,-4,-3.3,-6%,0.72,i,1.5
O=C(NC1CCN(Cc2ccccc2)CC1)c1cccc(OC(F)F)c1,-6,-3.7,14,18,1.7,-4%,0.67,i,-3.4
CCOc1ccc(-n2c(=O)c3c4c(sc3n(CC(=O)NCc3ccco3)c2=O)CCC4)cc1,6,x,x,x,x,-5%,0.72,x,-1.1
Cc1cccc(NS(=O)(=O)c2ccc(C)c(NS(=O)(=O)c3cccs3)c2)c1,x,8.9,-1,-3,-0.5,0%,0.67,i,15
Cc1occc1-c1nnc(SCC(=O)N(C)C)o1,-3,x,x,x,x,66%,0.66,x,4.1
C/C=C/c1cnc2c(c1)C(=O)N([C@@H](C)CO)C[C@H](C)[C@H](CN(C)Cc1cncnc1)O2,x,-20,2,-5,-4.2,x,x,i,x
Cc1ccc(C(=O)COC(=O)CCC(=O)NC2CCCCC2)cc1C,-5,x,x,x,x,-3%,0.74,x,1.0
C/C=C(\C)C(=O)N1CC2(CC(c3cccc(NC(=O)COc4ccc(Cl)cc4)c3)=NO2)C[C@@H]1C(N)=O (some centres undefined),1,0.8,-5,-5,7.3,u,x,i,-0.2
COC(=O)c1cc(OC(=O)c2ccc(=O)[nH]c2)cc(C(=O)OC)c1,4,-8.4,14,5,2.0,7%,0.7,i,-1.8
COCCNc1ccc(N2C(=O)C3CCCCC3C2=O)cc1[N+](=O)[O-] (centres undefined),-13,-16,-12,-3,-7.3,0%,0.64,i,-2.2
CS(=O)(=O)N1CCCCN2[C@H](C1)[C@@H](c1ccc(Br)cc1)[C@@H]2CO,x,-6.1,4,-2,-2.1,x,x,i,x
CC(=O)Nc1ccc(OC(=O)CC2SC(=O)NC2=O)cc1 (centres undefined),-13,x,x,x,x,14%,0.72,x,0.1
Clc1cccc(CN2CCN(Cc3ccco3)CC2)c1,44,3.0,1,4,-2.6,-3%,0.67,i,3.6
CO[C@H]1CC[C@H]2CCN(C)C(=O)[C@@H](C)N(C)C(=O)c3cccc(C#N)c3OC[C@H]1O2,x,2.0,2,12,-1.4,x,x,i,x
O=c1c2ccccc2ncn1Cc1ccc2c(c1)OCO2,-1,1.3,0,6,-0.7,x,0.63,i,4.0
COc1ccc(C)cc1NC(=O)C(Sc1nnc(-c2cccs2)o1)c1ccccc1 (centres undefined),-1,x,x,x,x,-3%,0.71,x,0.2
C[C@@H]1CN([C@H](C)CO)C(=O)CCCn2nncc2CO[C@H]1CN(C)Cc1ccc2c(c1)OCO2,x,-1.0&-0.1&-0.3,8&-1,10&-1,-1.0&-0.9,-4%,x,i,-2.4
COc1c(C)cc(C(=O)C2CCCN(C(=O)/C=C/c3ccccn3)C2)cc1C (centres undefined),-4,0.8,-1,11,8.8,x,0.7,i,-0.3
Cc1noc(C)c1S(=O)(=O)Nc1cccc2c1O[C@@H](CN(C)C(=O)Nc1ccccc1)[C@@H](C)CN([C@@H](C)CO)C2=O,x,-2.1,-2,5,0.1,x,x,i,x
O=[N+]([O-])c1ccc(S(=O)(=O)NCC(c2ccc3c(c2)OCO3)N2CCOCC2)cc1 (centres undefined),x,0.2,-12,-9,-4.9,2%,x,i,-7.2
COc1ccc(CNc2cc(C)nc3ncnn23)c(OC)c1,-7,-5.2,12,-8,2.3,-2%,0.67,i,2.0
O=S(=O)(N[C@H]1CC[C@@H](CCn2cc(C3CC3)nn2)O[C@@H]1CO)c1ccc(F)cc1,x,-1.4,5,0,-0.4,x,x,i,x
CO[C@H]1CN(C)C(=O)c2cc(NC(=O)Nc3ccccc3)ccc2OC[C@H](C)N(C(=O)CC2CC2)C[C@@H]1C,x,-5.1,0,-4,-0.1,x,x,i,x
COc1ccc(C(=O)N2CCCC(N3CCN(c4ccccc4OC)CC3)C2)c(OC)n1 (centres undefined),4,-1.6,4,-4,-3.3,3%,0.72,i,3.2
Cc1cc(=O)[nH]c(SCC(=O)NCc2ccco2)n1,-20,x,x,x,x,u,0.74,x,-17
O=C(NCC[C@@H]1CC[C@H](NS(=O)(=O)Cc2ccccc2)[C@H](CO)O1)C1CCOCC1,x,0.9,2,1,-2.8,x,x,i,x
CC12CCC(C[N+](C)(C)C1)C2(C)C (centres undefined),-9,-2.4,18,21,0.3,8%,0.7,i,-1.4
COc1ccc2c(c1)[nH]c1c(N3CCSCC3)ncnc12,33,-2.6,x,x,x,4%,0.61,i,-0.4
Cc1noc(C)c1NC(=O)Nc1ccc2c(c1)CC(=O)N([C@@H](C)CO)C[C@H](C)[C@@H](CN(C)Cc1ccc(-c3ccccc3)cc1)O2,x,0.2,0,-2,1.9,x,x,i,x
C[C@@H]1CN([C@H](C)CO)C(=O)c2cc(NC(=O)c3ccncc3)ccc2O[C@@H]1CN(C)C(=O)Nc1cccc2ccccc12,x,-0.1,1,-1,2.0,x,x,i,x
CC1CCN(S(=O)(=O)c2ccc(Cl)cc2)CC1,x,-9.5,1,0,-7.8,2%,0.67,i,1.5
CC1CCN(C(=O)CN2C(=O)C(C)(C)Oc3ccc(C(=O)NC4CCCC4)cc32)CC1,1,x,x,x,x,u,0.63,x,1.1
Cc1ccc(C)c(NS(=O)(=O)c2ccc(OCC(=O)NCc3ccccn3)cc2)c1,-24,0.6,-23,-28,0.5,-7%,0.67,i,3.0
CN(C(=O)CCn1c(=S)oc2ccccc21)C1CCCCC1,x,-1.2,-16,-13,1.9,5%,0.7,i,-1.3
CNC(=O)c1[nH]cnc1C(=O)N[C@@H](CC(C)C)C(=O)OC(C)(C)C,20,-2.8,19,18,5.5,5%,x,i,0.3
O=C(COC(=O)c1cccc(C(F)(F)F)c1)NCc1ccc(Cl)cc1,-2,-0.8,7,6,-1.2,1%,x,i,2.2
Cc1ccc(OCCOc2cccc(Br)c2)c([N+](=O)[O-])n1,0,x,x,x,x,-2%,0.6,x,3.0
CCC(C)[C@H](NC(=O)NCC1CCCO1)C(=O)OC (some centres undefined),-2,x,x,x,x,5%,0.67,x,-5.5

# One compound at a time, from the list above. Order of values: ALR H2O2 inh | AF4-AF9 inh | rRNA inh HTS | rRNA inh HTS OD600 | rRNA inh HTS RFP | Vif TR-FRET | Ecoli growth | FGF22 binding | HNF4A DNA FP
# Cc1noc(C)c1S(=O)(=O)Nc1cccc2c1O[C@@H](CN(C)C(=O)Nc1ccccc1)[C@@H](C)CN([C@@H](C)CO)C2=O is entered as x | -2.1 | -2 | 5 | 0.1 | x | x | i | x
# CNC(=O)c1[nH]cnc1C(=O)N[C@@H](CC(C)C)C(=O)OC(C)(C)C is entered as 20 | -2.8 | 19 | 18 | 5.5 | 5% | x | i | 0.3
# O=C(COC(=O)c1cccc(C(F)(F)F)c1)NCc1ccc(Cl)cc1 is entered as -2 | -0.8 | 7 | 6 | -1.2 | 1% | x | i | 2.2

# The list continues.
SMILES,ALR H2O2 inh,AF4-AF9 inh,rRNA inh HTS,rRNA inh HTS OD600,rRNA inh HTS RFP,Vif TR-FRET,Ecoli growth,FGF22 binding,HNF4A DNA FP
O=C(C[C@H]1CC[C@H]2[C@@H](COC[C@H](O)CN2C(=O)Nc2ccc(Cl)cc2)O1)NCC1CCCCC1,x,-17,-55,-78,-19,x,x,i,x
O=C(Nc1nnc(SCc2ccccn2)s1)C1CC(=O)N(c2ccc(F)cc2)C1 (centres undefined),-4,-2.1,-2,-5,4.8,8%,0.7,i,0.1
CN(C)S(=O)(=O)c1ccc(C(=O)Oc2coc(CSc3ncccn3)cc2=O)cc1,16,-2.1,5,7,-1.3,3%,0.67,i,-1.9
CC(=O)Nc1ccc(NC(=O)c2ccccc2S(=O)(=O)c2ccccc2[N+](=O)[O-])cc1,x,-5.9,x,x,x,x,0.72,i,-1.1
CC(=O)c1cccc(N(C(=O)Cn2nnc3ccccc32)C(C(=O)NCC2CCCO2)c2ccc(N3CCOCC3)cc2)c1 (centres undefined),-5,-2.0,19,7,1.5,-4%,0.69,i,1.0
COc1cccc(-c2csc(NC(=O)C3CC3)n2)c1,1,-0.1,-26,-41,-7.7,3%,0.71,i,2.7
OCCNc1ncnc2c1ncn2[C@H]1CN(Cc2ccc3c(c2)OCO3)C[C@@H](CO)O1,x,-2.0,8,5,-0.6,x,x,i,3.1
Cc1ccc(-c2ccc3c(c2)O[C@H](CN(C)C(=O)Nc2ccccc2)[C@@H](C)CN([C@H](C)CO)S3(=O)=O)cc1,x,2.5,-4,1,2.4,x,x,i,x
CCCC#Cc1cnc2c(c1)C(=O)N([C@H](C)CO)C[C@@H](C)[C@@H](CN(C)Cc1cccnc1)O2,x,0.4,0,-3,-0.2,x,x,i,x
COCC(=O)N1CC2(C1)[C@@H](c1ccc(-c3ccc(F)cc3)cc1)[C@@H](CO)N2C(C)=O,x,0.6,0,-3,-0.8,x,x,i,x
CCCOC(=O)CSc1nnc(-c2ccc(Cl)cc2Cl)o1,-2,x,x,x,x,0%,0.71,x,2.5
Cc1nn(C(C)C(=O)NC2CCC(C)CC2)c(=O)c2nn(-c3ccccc3)c(C)c12 (centres undefined),-2,-1.5,0,-3,-2.1,x,x,i,3.4
O=S(=O)(c1ccccc1)N1CCN(c2nc3ccccc3s2)CC1,-2,x,x,x,x,u,0.73,x,3.6
CCOC(=O)Cn1c(C)c(C#N)c2ccccc21,-3,x,x,x,x,-3%,0.72,x,2.9
O=C(Cc1ccccc1)NCCCN1CCN(CCCNC(=O)Cc2ccccc2)CC1,-14,x,x,x,x,2%,0.73,x,17
COc1ccc(Br)cc1CNC(=O)C1CCN(S(=O)(=O)N2CCC(C)CC2)CC1,-3,-2.1,5,-1,1.8,-5%,0.65,i,-1.4
O=C(CSc1nnc(SCc2ccc(Cl)cc2)s1)N/N=C/c1ccc(C(=O)O)cc1,x,2.4,11,11,8.1,15%,x,i,1.1
O=C(NCc1ccccn1)C12CC3CC(CC(C3)C1)C2,42,-2.8,7,3,-1.1,x,0.69,i,-2.2
CC(Oc1ccccc1)C(=O)OCC(=O)N1CC(=O)Nc2ccccc21 (centres undefined),-6,-0.9,-2,0,-2.9,-2%,0.69,i,0.5
C[C@@H]1CN([C@H](C)CO)C(=O)c2cc(NC(=O)Nc3ccc(F)cc3)ccc2O[C@@H](C)CCCCO[C@H]1CN(C)C(=O)Nc1ccccc1,x,2.0,0,-2,0.8,x,x,i,x
O=[N+]([O-])c1ccc(S(=O)(=O)Nc2cccc(-c3ccc(N4CCCC4)nn3)c2)cc1,0,-1.2,1,-1,-1.0,-3%,0.7,i,11
Cc1[nH]c(=O)[nH]c(=O)c1CSc1nnc([C@@H](NC(=O)OC(C)(C)C)C(C)C)o1,4,x,x,x,x,5%,0.76,x,2.3

# An excerpt, so the mix of outcomes need not match the whole.
